TsaE inh = YjeE (TsaE) inhibition, E. coli; P0AF67; purified YjeE, fluorescence polarisation of a bound ADP probe; Potency, µM; hit rate 0.05% among 71,000; active = well fitted falling curve; inconclusive = weaker or top-dose-only fall, or a rising curve; inactive = flat or poorly fitted curve;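 also: top concentration of the series not given in the record; excess ADP was the control for the full effect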
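Fluorescence polarization of a BODIPY Texas Red–ADP probe (2 uM) bound to purified YjeE (10 uM) was read after 15 min room-temperature incubation with compounds. Loss of polarization marks inhibitors; ADP serves as titrated control.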
Bst PK mod = alters activity of Bacillus stearothermophilus pyruvate kinase; partly purified Bacillus stearothermophilus pyruvate kinase, luminescence ATP production; ribose 5-phosphate activator present at AC10; Potency, µM; hit rate 1.2% among 51,000; in the data active means potency below about 11 µM; inconclusive means mostly about 12 µM to 25 µM; inactive means weaker than that;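 the screen sought inhibitors and activators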;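 also: potency is read from the fitted curve at half-maximal effect; scaled between full activation by ribose 5 phosphate and full inhibition by luteolin; about four in five hits inhibit and the cells do not say which; series up to 57 µM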
An asterisk follows results filed as active; i = inactive; ? = inconclusive; nt = not tested or not shown. A portion of the library; rates above refer to the full screens.

SMILES | TsaE inh | Bst PK mod
Cc1nnc2sc(-c3cccc(NC(=O)c4cccnc4)c3)nn12 | i | nt
Cc1cc(NC(=O)c2noc3c2CCc2ccccc2-3)n(-c2ccccc2)n1 | i | nt
CC(OC(=O)c1cccs1)C(=O)NCc1ccccc1 (centres undefined) | i | >57
Cc1ccc2[nH]c(=O)c3cc(C(=O)N(C)Cc4ccco4)sc3c2c1 | i | nt
O=C(O)c1cn[nH]c1-n1cnnn1 | i | >57
CC(=O)O[C@H]1CC[C@@]2(C)[C@@H](CC[C@H]3[C@H]2CC(=O)[C@@]2(C)[C@@H]3C[C@H]3CC(C)=CC(=O)[C@H]32)C1 | i | nt
COc1ccc(NC(=O)c2ccc(OC)cc2)cc1 | i | nt
O=C(c1ccncc1)N1CCC[C@@]2(CCN(c3ccccc3)C2)C1 | i | nt
COc1ccc(S(=O)(=O)N2CCC(C(=O)N3CCc4ccccc4C3)CC2)cc1OC | i | nt
Cc1ccc(C(=O)NCc2nnc(SCC(=O)Nc3sc4c(c3C#N)CCCC4)n2C)cc1 | i | >57
Cc1ccc(OCC(=O)NCCO)cc1C | i | nt
CC(=O)c1cc2ccccc2oc1=O | i | nt
O=C1CCCCC1 | i | nt
OCCCNCc1ccccn1 | i | nt
CC(C)Cc1cc(-c2ccco2)c(C#N)c(N)n1 | i | nt
CCN(CCCNc1ncnc2nc[nH]c12)c1cccc(C)c1 | i | nt
O=C(c1cccs1)N(Cc1cccc(Cl)c1)C1CCS(=O)(=O)C1 (centres undefined) | i | >57
CCc1nn2c(=O)cc(N3CCN(c4cc(C)nc5ccccc45)CC3)nc2s1 | i | >57
O=C1C2CC=C(Cl)CC2C(=O)N1CC1Cc2ccccc2CO1 (centres undefined) | i | nt
Cc1ccc(C(C)C)c(OCCN)c1 | i | >57
O=C(Nc1cccc(Cl)c1Cl)C1CCN(c2ncccn2)CC1 | i | >57
CCOC(=O)c1cc(C)n(Cc2ccccc2)c1C | i | >57
COc1cc2nc(-c3ccc(Br)o3)oc(=O)c2cc1OC | i | >57
CC1(C)CC(NC(=O)CCc2ccccc2)CC(C)(C)N1 | i | >57
COc1ccc(C)cc1NC(=O)CSc1nnnn1Cc1ccccc1 | i | >57
N[C@H](Cc1cccc(-c2ccccc2CP(=O)(O)O)c1)C(=O)O | i | nt
Cc1ccc(SCc2cc(=O)[nH]c(N3CCOCC3)n2)cc1 | i | >57
c1ccc(CN2CCN(CCN3CCn4c3nc3ccccc34)CC2)cc1 | i | >57
Cc1ccc2nc(SCCC#N)nc(C)c2c1 | i | ?
Cn1c(=O)n(CC(=O)O)c(=O)c2c1nc1n2CCS1 | i | >57
CCCCCn1c(SCCCC)nc2c1c(=O)[nH]c(=O)n2C | i | >57
COc1c(C)cccc1C(=O)Nc1ccc(CN2CCOCC2)cc1 | i | >57
C=CCn1c(SCn2nnc3ccccc3c2=O)nnc1-c1ccc(Br)cc1 | i | >57
Cn1c(=O)oc2cc(S(=O)(=O)NCCC(=O)Nc3ccc4c(c3)OCCO4)ccc21 | i | >57
CN(C)S(=O)(=O)Nc1ccc(Br)cc1F | i | >57
COc1cc2c(O)c3c(c(-c4ccc5c(c4)OCO5)c2cc1OC)C(=O)OC3 | i | nt
COc1ccccc1CNc1cc(-c2cccc(NS(C)(=O)=O)c2)ncn1 | i | nt
O=C(CCS(=O)(=O)c1cccc2nsnc12)N1CCN(C(=O)c2ccco2)CC1 | i | >57
Cc1ccccc1C(=O)N1CCC(C(=O)Nc2ccc(S(=O)(=O)N3CCCC3)cc2)CC1 | i | >57
Cc1cc2cc3c(cc2nc1SCC(=O)N1CCN(C(=O)c2ccco2)CC1)OCO3 | i | >57
CC1(C)CC(=O)C(/C=N/n2cnc3ccccc3c2=O)=C(O)C1 | i | >57
COc1ccc(S(=O)(=O)N(C)C2CCS(=O)(=O)C2)cc1OC (centres undefined) | i | >57
Cc1cccc(OCC(O)Cn2c(NCc3cccnc3)nc3c2c(=O)[nH]c(=O)n3C)c1 (centres undefined) | i | >57
COCC(C)n1c(C)cc(C(=O)COC(=O)c2ccc3ncsc3c2)c1C (centres undefined) | i | >57
COc1cccc(C2C=C(c3cccs3)Nc3ncnn32)c1OC (centres undefined) | i | >57
CCCC(=O)c1ccc(N2CCN(C(=O)c3ccccc3)CC2)c(F)c1 | i | nt
CCOC(=O)c1c(C)oc2ccc(O)c(CN(C)C)c12 | i | >57
CC1CCCCN1C(=O)CSc1nnc(-c2ccco2)n1CC1CCCO1 (centres undefined) | i | >57
CS(=O)(=O)N1CCN(c2ccccc2NC(=O)c2ccc(Cl)cc2)CC1 | i | >57
Cc1cc(C)nc(SCc2nnc(SCC(=O)Nc3ccccc3C)n2Cc2ccco2)n1 | i | >57
O=C(C1=C(O)C(=O)N(CCCN2CCOCC2)C1c1ccccn1)c1cc2ccccc2o1 (centres undefined) | nt | >26
NC(=O)c1ncn([C@@H]2O[C@@H](CO)[C@@H](O)[C@H]2O)n1 | i | nt
CCOc1cc(-c2noc(CCCC(N)=O)n2)cc(Br)c1OC | i | >57
O=C(O)C1C2C=CC3(CN(Cc4ccccn4)C(=O)C13)O2 (centres undefined) | i | >57
COc1ccc(OCCC(=O)NCc2ccccc2)cc1 | i | >57
COCCNC(=O)c1c(N)n(CCCn2ccnc2)c2nc3ccccc3nc12 | i | nt
O=C1CC(c2ccccc2)CN1S(=O)(=O)c1ccccc1 (centres undefined) | i | nt
O=C(Cn1ncc2c(=O)oc3ccccc3c21)NCCC1=CCCCC1 | i | >57
CC(=O)[C@@]1(O)CC[C@@H]2[C@@H]3CCC4=CC(=O)CC[C@@]4(C)[C@H]3CC[C@]21C | i | nt
CCOC(=O)Cc1csc(SCC(=O)/C(C#N)=C(\C)N)n1 | i | >57
The listing continues.
SMILES | TsaE inh | Bst PK mod
Cc1nc2cncnc2n(C2CC2)c1=O | i | nt
CC(=O)N1CCC2(CC1)CN(Cc1ccccc1)C2 | i | nt
CCOC(=O)C1CCCN(Cc2nc(N)nc(Nc3ccccc3OC)n2)C1 (centres undefined) | i | nt
CCOc1ccc(-n2c(SC(C)C(=O)OC)nc3c(c2=O)SCC3)cc1 (centres undefined) | i | >57
CC1CCc2sc3nc(N4CCN(CCO)CC4)n4ncnc4c3c2C1 (centres undefined) | i | nt
O=C1C=C(N(CCO)CCO)C2(CCCCC2)O1 | i | nt
COc1cccc(Nc2ncc3nc(C)c(=O)n(C[C@H]4CCCO4)c3n2)c1 | i | nt
Cc1cc(C(=O)Nc2nc3ccc(S(C)(=O)=O)cc3s2)c(C)o1 | i | nt
Cc1ccc(S(=O)(=O)n2nc(-c3ccc(Cl)cc3)nc2NCc2ccco2)cc1 | i | >57
S=C1NC=NC2N=CNC12 (centres undefined) | i | nt
O=C1CC(c2ccc(S(=O)(=O)N3CCN(c4ccccc4)CC3)cc2)CN1 (centres undefined) | i | >57
COc1ccc(CCN(C)CCN2C(=O)c3ccccc3C2=O)cc1OC | i | >57
O=C(COC(=O)CSCC(=O)N1CCCCC1)Nc1ccc(Cl)cc1 | i | >57
Nc1nc2n[nH]nc2c(=O)[nH]1 | i | nt
CC(c1ccccc1)C1CC(=O)N(CC(=O)O)C1=O (centres undefined) | i | >57
CCCC(=O)Nc1cc(-c2cn3cccnc3n2)ccc1OC | i | >57
COC1=CC(=O)CC(C)C12Oc1c(Cl)c(OC)cc(OC)c1C2=O (centres undefined) | nt | >26
O=C(c1ccccc1)n1ccc2ccccc21 | i | nt
O=C(Cn1c(=O)sc2ccccc21)NCc1ccco1 | i | >57
CCN1C(=O)c2cccc3c(NC(=O)C(C)(C)C)ccc1c23 | i | >57
CCCCOc1ccc(N2C(=O)CC(N(O)c3ccccc3)C2=O)cc1 (centres undefined) | i | >57
Cn1c(NCc2ccco2)nc2c1c(=O)n(Cc1ccc(Cl)c(Cl)c1)c(=O)n2C | nt | 1.9*
CC(OC(=O)C1CC=CCC1C(N)=O)C(Cl)=C(Cl)Cl (centres undefined) | i | nt
CS(=O)(=O)N1CCN(c2ccccc2NC(=O)Cc2ccccc2)CC1 | i | >57
CCC(C)[C@H](NC(=O)NCc1ccccc1)C(=O)O (some centres undefined) | i | >57
C/C(=N\NC(=O)c1ccncc1)c1ccc2ccccc2c1O | i | nt
Cn1c(=O)c2nnn(/N=C(\c3ccccc3)C3CC3)c2n(C)c1=O | i | >57
O=C(NCCN1CCCC1)c1cc(-c2ccncc2)nc2ccc(S(=O)(=O)N3CCOCC3)cc12 | i | >57
O=C(O)CCN1C(=S)CSC1=S | i | nt
C=CCN1C(=O)CSc2ccc(C(=O)OCC)cc21 | i | >57
COc1cccc(-c2nc(CS(=O)(=O)CC(=O)N3CCN(c4ccccn4)CC3)c(C)o2)c1 | i | nt
Cc1noc(/C=C/N(C)C)c1S(=O)(=O)N1CCc2ccccc21 | i | nt
C=CCn1c(SCC(=O)NC2CCCC2)nc2scc(-c3ccco3)c2c1=O | i | >57
COC(=O)c1ccccc1NC(=O)Cn1c(SC)c(F)cnc1=O | i | >57
Cc1c(Br)cc(C(=O)OC2CCN(C)CC2)c(C)c1C | i | >57
COC(=O)CN1C(=O)C(O)(CC(=O)c2cccc(Br)c2)c2ccccc21 (centres undefined) | i | nt
c1cncc(CNc2ncnc3ccc(-c4ccoc4)cc23)c1 | i | nt
COc1ccccc1N(C(=O)c1snc(C(N)=O)c1N)C(C(=O)NCCC(C)C)c1ccco1 (centres undefined) | i | >57
COC(=O)c1cc(NC(=O)c2ccc(Cn3cc(Cl)cn3)o2)cc(C(=O)OC)c1 | i | >57
O=C1CC(c2ccc3c(c2)OCO3)c2cc3c(cc2N1)OCO3 (centres undefined) | i | >57
CC1CCCN(C(=O)Nc2cccc(NC(=O)N3CCCC(C)C3C)c2)C1C (centres undefined) | i | >57
CCOc1ccc(C(=O)NC2CCN(S(C)(=O)=O)CC2)cc1 | i | >57
COc1ccc(S(=O)(=O)N2CCCC2C(=O)Nc2ccc(O)cc2)cc1 (centres undefined) | i | nt
Clc1ccc(-n2cnnn2)cc1 | i | >57
O=C(CSc1nnc([C@@H]2CCCN2)o1)c1ccc(Cl)cc1 | i | >57
CC1(C)N=C(c2cccc(F)c2)C(=O)N1 | i | >57
O=c1oc2cc(OCc3nn[nH]n3)ccc2c2c1CCCC2 | i | >57
Cn1c(=O)c2[nH]c(NCC3CCCO3)nc2n(-c2ccccc2)c1=O (centres undefined) | i | >57

2 neighbouring compounds out of the list so far, quoted:
SMILES | TsaE inh | Bst PK mod
c1cncc(CNc2ncnc3ccc(-c4ccoc4)cc23)c1 | i | nt
COc1ccccc1N(C(=O)c1snc(C(N)=O)c1N)C(C(=O)NCCC(C)C)c1ccco1 (centres undefined) | i | >57

Structures listed so far marked active in Bst PK mod.
SMILES | TsaE inh | Bst PK mod
Cn1c(NCc2ccco2)nc2c1c(=O)n(Cc1ccc(Cl)c(Cl)c1)c(=O)n2C | nt | 1.9*

Entries from the list above that have a COOH group, in the order listed:
SMILES | TsaE inh | Bst PK mod
O=C(O)c1cn[nH]c1-n1cnnn1 | i | >57
N[C@H](Cc1cccc(-c2ccccc2CP(=O)(O)O)c1)C(=O)O | i | nt
Cn1c(=O)n(CC(=O)O)c(=O)c2c1nc1n2CCS1 | i | >57
O=C(O)C1C2C=CC3(CN(Cc4ccccn4)C(=O)C13)O2 (centres undefined) | i | >57
CC(c1ccccc1)C1CC(=O)N(CC(=O)O)C1=O (centres undefined) | i | >57
CCC(C)[C@H](NC(=O)NCc1ccccc1)C(=O)O (some centres undefined) | i | >57
O=C(O)CCN1C(=S)CSC1=S | i | nt

Next section
SMILES | TsaE inh | Bst PK mod
CCCn1c(=S)[nH]c2cc(C(=O)N3CCN(c4ccccc4OC)CC3)ccc2c1=O | i | >57
COc1ccc(-c2cc3c(=O)n(CC(=O)NC4CCN(Cc5ccccc5)CC4)ncn3n2)cc1 | i | >11
CCN1C(=O)CC(N2CCN(c3ccc(C(=O)c4ccccc4)cc3)CC2)C1=O (centres undefined) | i | nt
CCc1c(C(=O)NCCc2ccc(OC)c(OC)c2)[nH]c(C)c1C(C)=O | i | >57
COC(=O)c1ccc(C(NC(=O)OCc2ccccc2)/C(=C/[C@@H](C)C(=O)N[C@@H](CO)Cc2ccccc2)c2cccnc2)cc1 (some centres undefined) | i | nt
CCOC(=O)C(Sc1ncn[nH]1)c1ccccc1 (centres undefined) | i | nt
CC12CN3CC(C)(CN(C1)C3c1ccccc1Cl)C2O (centres undefined) | i | >57
Cc1ccc(-n2cc(-c3ccccc3)[nH]c2=O)cc1F | i | >57
O=c1[nH]c(=O)n(Cc2ccccc2)c2c1CCC2 | i | >57
CCCn1c(=S)[nH]c2cc(C(=O)N3CCCC(C(=O)OCC)C3)ccc2c1=O (centres undefined) | i | >57
CCC1CCCCN1c1nc(-c2ccncc2)nc2ccccc12 (centres undefined) | nt | >26
O=C(NC1CCN(C(=O)NCc2ccccc2)CC1)c1ccco1 | i | >57

6 records picked at random from the list so far, as already listed:
SMILES | TsaE inh | Bst PK mod
O=c1[nH]c(=O)n(Cc2ccccc2)c2c1CCC2 | i | >57
CCOC(=O)C(Sc1ncn[nH]1)c1ccccc1 (centres undefined) | i | nt
CC12CN3CC(C)(CN(C1)C3c1ccccc1Cl)C2O (centres undefined) | i | >57
O=C(NC1CCN(C(=O)NCc2ccccc2)CC1)c1ccco1 | i | >57
CCN1C(=O)CC(N2CCN(c3ccc(C(=O)c4ccccc4)cc3)CC2)C1=O (centres undefined) | i | nt
COC(=O)c1ccc(C(NC(=O)OCc2ccccc2)/C(=C/[C@@H](C)C(=O)N[C@@H](CO)Cc2ccccc2)c2cccnc2)cc1 (some centres undefined) | i | nt

Next results
SMILES | TsaE inh | Bst PK mod
COc1cccc(-c2nnn(CC(=O)Nc3ccc(C)cc3C)n2)c1OC | i | >57
CC(N)=NCCC[C@H](N)C(=O)O | i | nt
O=C(CN1C(=O)c2ccccc2C1=O)N1CCOCC1 | i | >57
Cc1cc2n(n1)C(c1c[nH]c3ccccc13)Nc1ccccc1-2 (centres undefined) | i | i
